Source: PubChem
TRPV1 potentiator: human TRPV1 potentiation | AID 540277 | potentiation, % at 8.33 µM | Q8NER1 | TRPV1-expressing cells, Fluo-8 calcium influx, capsaicin EC20 potentiation; host cell line not named in the record; control for the full effect not named in the record | actives 0.02% (n = 320,000); active means potentiation above 80%; inconclusive means 30% to 80%; inactive means below 30%; note: 0% is about no effect
Target sequence (Q8NER1 whole entry, looked up): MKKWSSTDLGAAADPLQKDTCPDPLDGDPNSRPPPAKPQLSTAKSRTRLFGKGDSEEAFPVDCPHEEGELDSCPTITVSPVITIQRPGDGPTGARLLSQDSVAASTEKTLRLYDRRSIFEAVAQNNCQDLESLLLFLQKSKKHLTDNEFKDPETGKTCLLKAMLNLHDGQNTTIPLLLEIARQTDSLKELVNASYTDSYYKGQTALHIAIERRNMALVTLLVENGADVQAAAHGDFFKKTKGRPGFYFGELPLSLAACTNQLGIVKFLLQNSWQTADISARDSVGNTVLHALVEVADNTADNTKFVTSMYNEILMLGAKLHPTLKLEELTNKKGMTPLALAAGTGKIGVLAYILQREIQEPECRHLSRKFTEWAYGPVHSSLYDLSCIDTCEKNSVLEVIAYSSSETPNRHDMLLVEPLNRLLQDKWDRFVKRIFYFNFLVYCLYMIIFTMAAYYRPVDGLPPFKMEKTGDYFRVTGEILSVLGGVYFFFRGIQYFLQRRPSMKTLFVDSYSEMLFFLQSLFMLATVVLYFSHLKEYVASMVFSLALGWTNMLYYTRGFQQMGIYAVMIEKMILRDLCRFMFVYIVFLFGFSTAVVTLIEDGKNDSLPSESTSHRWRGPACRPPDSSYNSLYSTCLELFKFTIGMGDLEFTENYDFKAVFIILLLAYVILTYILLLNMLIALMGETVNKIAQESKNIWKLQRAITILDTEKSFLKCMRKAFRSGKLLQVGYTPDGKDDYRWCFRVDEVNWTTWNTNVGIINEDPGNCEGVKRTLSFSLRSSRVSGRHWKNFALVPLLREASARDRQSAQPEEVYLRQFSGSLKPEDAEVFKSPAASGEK
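TRPV1-expressing cells were cultured overnight at 35.5C and loaded with Fluo-8 calcium dye for 40 to 90 min at room temperature. After a 10 s baseline, compound was added and calcium influx was read kinetically for 3 min (ex 480/em 520 nm).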
Menin-MLL FL inh: inhibitors of human menin-MLL interaction, wild-type MLL peptide | Fluorescence polarization, fluorescein-MLL peptide displacement from menin | FP activity change, % at 61.4 µM | 290,000 tested, under 10 active; inconclusive = falling polarisation curve, or a change in total fluorescence; inactive = total fluorescence flat and polarisation flat or rising; no compound was filed as active; the % refers to the polarisation; negative = inhibition;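 note: % of control where 0% means no effect; inhibitors lower the polarisation; unlabelled MLL peptide was the positive control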
Sfp inh: Sfp phosphopantetheinyl transferase inhibition. Q9F4F7. Biochemical Sfp PPTase activity, qHTS. AID 1490. actives 3.5% (n = 310,000). Potency, µM, inactives show max response, negative = inhibition, usual class: inhibitors; active = well fitted inhibition curve with a large enough effect; inconclusive = small, poorly fitted or top-dose-only effect, or another doubt; inactive = no such curve, though single readings can be large or run the other way;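 note: the enzyme is Sfp with the accession as filed and its product quenches rhodamine fluorescence; potency is the fitted concentration of half-maximal effect; 0% = enzyme reaction without inhibitor and -100% = no enzyme wells; top concentration of the series not given in the record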
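After 15 min at room temperature with compound, 15 nM Sfp received 5 uM rhodamine-CoA plus 12.5 uM BHQ-2-ybbR (50 mM Hepes pH 7.6, 10 mM MgCl2). Rate came from the fluorescence difference over 30 min, ex 525/em 598 nm.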
CtBP-E1A blk: blocks the CtBP interaction with E1A. AlphaScreen GST-E1A/His-CtBP binding, 1536-well; stronger effect = lower value; control for the full effect not named in the record. activity change, % (test concentration not listed). actives 0.49% (n = 340,000). AID 651724; in the data active means activity change below about -65%; inconclusive means about -30% to -65%; inactive means above about -30%; note: % is set by controls: 0 for no effect and ±100 for the full control effect; compound concentration not given in the record
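Steps: dispense buffer (Tris pH 8.0, NaCl 300 mM, TCEP 1 mM, BSA, Tween 20); add 5X protein mix (GST-E1A, His-CtBP, 125 nM each); pin 23 nL compound; 2 h at 37 °C, dark; add 5X beads (50 ug/mL); 1 h; read.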
ClpP mod: qHTS Assay for Activators of ClpP; ATP-dependent Clp protease proteolytic subunit (Bacillus subtilis (strain 168)), P80244; purified B. subtilis ClpP, FRET peptide cleavage, 20 min; Potency, µM (series often up to 57.5 µM), inactives show at the top dose activity change, negative = active; actives 1.9% (n = 340,000); AID 651965, 2013; active = well fitted falling curve with a large enough effect; inconclusive = small, poorly fitted or top-dose-only effect; inactive = no such curve, though single readings can be large or run the other way; note: potency is the fitted concentration of half-maximal effect; the source files actives as falling curves though it sought activators and does not explain the sign; nearly all actives have a fitted effect of over 65% in size; many hits overshoot -100%
Target sequence (P80244 whole entry, looked up): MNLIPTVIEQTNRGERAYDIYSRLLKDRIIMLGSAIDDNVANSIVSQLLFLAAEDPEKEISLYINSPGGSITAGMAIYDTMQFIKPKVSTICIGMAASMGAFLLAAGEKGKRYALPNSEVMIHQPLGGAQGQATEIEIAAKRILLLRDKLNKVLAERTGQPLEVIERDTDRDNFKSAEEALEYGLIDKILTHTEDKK
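ClpP 10 microg/mL final, pH 8 Tris/KCl buffer with BSA, glycerol, Tween-20; compound pinned in; FRET-FV substrate; RT 20 min; Ex320/Em430; ΔFRET vs ADEP 5.8 microM, DMSO, no enzyme.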
gsp antagonist: gsp mutant antagonism | Potency, µM (top dose mostly 76.9 µM), without a hit: at the top dose activity change, negative = inhibition, most hits filed as inhibitors | AID 624288 | actives 0.4% (n = 340,000) | gsp-mutant cells, cAMP HTRF, 30 min; control for the full effect not named in the record; active = falling curve of any shape with a large fitted effect; inconclusive = falling curve, mostly with a smaller effect; inactive = flat or rising curve; cell line not stated here;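 note: intracellular cAMP measured with PDE inhibitor Ro 20-1724 present during compound exposure; potency is the fitted concentration of half-maximal effect; % is set by controls: 0 for no effect and ±100 for the full control effect; nearly all actives have a fitted effect of over 65% in size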
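Cells, 2000/well, grown 16–24 h in DMEM 10% FBS with 0.5 mg/ml G418, then compounds plus […] (300 uM addition stock), 30 min at 37C. cAMP read by HTRF (cAMP-d2 and anti-cAMP antibody-K in lysis buffer) after 30 min RT.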
gsp ag: agonists of gsp mutant (McCune-Albright syndrome) | gsp mutant cells, cAMP HTRF, 30 min; control for the full effect not named in the record | Potency, µM (titrated, usually from 76.9 µM), without a hit: at the top dose activation (cAMP increase), hits mostly activators | actives 0.13% (n = 340,000) | AID 624287; active = well fitted activation curve with a large enough effect; inconclusive = small, poorly fitted or top-dose-only effect, or another doubt; inactive = no such curve, though single readings can be large or run the other way; cell line not stated here;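 note: phosphodiesterase inhibitor Ro 20-1724 added with compounds to block cAMP breakdown; potency is the fitted concentration of half-maximal effect; nearly all actives have a fitted effect of over 60% in size; about a fifth of the inactives were tested at one dose only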
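Cells stably selected in G418 were plated at 2000/well, grown 16-24 hr, then given compounds in DMSO with the PDE inhibitor […] (300 uM solution added) for 30 min at 37C; cAMP was read by HTRF.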
An asterisk follows results filed as active; u = inconclusive; x = not tested or not shown; & = joins results of further samples; [ ] = dose if it differs, or a comment.

No.	SMILES	gsp antagonist	TRPV1 potentiator	CtBP-E1A blk	Sfp inh
1	Nc1cc2c(cc1Br)[nH]c(=O)c1ccccc12	-4%	x	-25	x
2	CCn1c(C)nc2cc(S(=O)(=O)Nc3ccc(C)cc3)ccc21	-1%	0	12	-9%
3	CCCCn1c(N)c(N(CC(C)C)C(=O)c2ccc(-n3c(C)ccc3C)cc2)c(=O)[nH]c1=O	5%	11	-15	x
4	O=S(=O)(c1ccc(-c2ccon2)s1)N1CCOCC1	0%	0	0	10%
5	COC(=O)Cn1nnc(-c2cccc(OC)c2)n1	3%	-16	10	15%
6	N#CCSc1nnc(-c2c[nH]c3ccccc23)o1	4%	-4	u	5%
7	CN(CC(=O)Nc1ccccc1Cl)C(=O)COC(=O)C1CC1	3%	0	0	x
8	COc1ccc(NC(=O)COc2ccccc2C)cc1S(=O)(=O)N1CCCCC1	-13%	-8	-4	x
9	COc1ccc(CCNC(=O)c2cc3sc(Cl)cc3n2C)cc1OC	-24%	-6	u	2%
10	Cc1ccccc1C(=O)c1cn[nH]c1-c1ccccc1O	11%	8	12	11%
11	Cc1ccc(NC(=O)c2noc(C(C)C)c2[N+](=O)[O-])cc1	3%	-10	-3	10%
12	O=c1nc(N/N=C/c2c[nH]c3ccccc23)cn[nH]1	-5%	-8	-86*	50µM*
13	CCOc1nc2cnccc2n(CC(=O)Nc2ccc(C)c(C)c2)c1=O	6%	-5	x	21%
14	O=C(CCN1C(=O)c2ccccc2S1(=O)=O)NCc1ccccc1	1%	24	7	x
15	CCCCn1c(N)c(N(CC(C)C)C(=O)C2=NN(c3cc(C)ccc3C)C(=O)CC2)c(=O)[nH]c1=O	8%	2	-4	x

No.	ClpP mod	gsp ag	Menin-MLL FL inh
1	-12%	-81%[inhibitor]	x
2	x	37%	2.5
3	-2.3%	-3%	x
4	x	1%[15.4 µM]	-0.6
5	0.8%	27%	-2.2
6	-3.5%	17%	x
7	-21%	-93%[inhibitor]	x
8	-2.0%	17%[15.4 µM]	x
9	-6.1%	-43%[inhibitor]	5.7
10	-0.8%	4%	-0.2
11	x	-9%[15.4 µM]	3.2
12	x	-20%[15.4 µM]	2.8
13	5.1%	u	x
14	x	10%[15.4 µM]	x
15	-7.8%	-12%[15.4 µM]	x

Fetched by compound from above (4):
No.	SMILES	gsp antagonist	TRPV1 potentiator	CtBP-E1A blk	Sfp inh
5	COC(=O)Cn1nnc(-c2cccc(OC)c2)n1	3%	-16	10	15%
8	COc1ccc(NC(=O)COc2ccccc2C)cc1S(=O)(=O)N1CCCCC1	-13%	-8	-4	x
4	O=S(=O)(c1ccc(-c2ccon2)s1)N1CCOCC1	0%	0	0	10%
9	COc1ccc(CCNC(=O)c2cc3sc(Cl)cc3n2C)cc1OC	-24%	-6	u	2%

No.	ClpP mod	gsp ag	Menin-MLL FL inh
5	0.8%	27%	-2.2
8	-2.0%	17%[15.4 µM]	x
4	x	1%[15.4 µM]	-0.6
9	-6.1%	-43%[inhibitor]	5.7

(cont.)
No.	SMILES	gsp antagonist	TRPV1 potentiator	CtBP-E1A blk	Sfp inh
16	CC(=O)Nc1ccccc1C(=O)N1CCN(Cc2ccccc2)CC1	10%	-3	x	7%
17	COC(CNc1cc(=O)oc2ccccc12)OC	17%	-6	-1	21%
18	CCN(CC)C1CCN(C(=O)c2cc(COc3cccc4cccnc34)on2)C1 (configuration not stated)	12%	-8	0	18%
19	COc1cccc(C(=O)Nc2cccnc2)c1	7%	13	-2	1%
20	OCCCc1cn(Cc2ccccc2)c2ccccc12	7%	-11	0	1%
21	Cc1cccc(C)c1NC(=O)COC(=O)CN1C(=O)C2CCCCC2C1=O (configuration not stated)	3%	3	x	x
22	CCCCn1nc(NC(=O)COC)c2cc3cc(OC)ccc3nc21	-16%	-8	26	6%
23	CCOC(=O)c1sc(=NC(=O)c2cccc(OC)c2)n(C)c1C	23%	22	-1	16%
24	COc1ccc(-c2nc(NC(=O)Cn3ccc(C(F)(F)F)n3)sc2C)cc1	-3%	5	-2	13%
25	O=C1C=C(c2ccc3c(c2)OCO3)C[C@@H](c2ccc3c(c2)OCO3)C1	2%	-12	-6	x
26	CCn1c(CSCc2c(Cl)cccc2Cl)n[nH]c1=S	-6%	12	x	-7%
27	COC(=O)C[C@H]1C[C@H]2c3cc(NC(=O)C4CCOCC4)ccc3O[C@H]2[C@H](CO)O1	x	x	-4	x
28	COc1ccccc1NS(=O)(=O)c1cc(NC(C)=O)ccc1N1CCCCC1	-12%	0	1	45µM*
29	Cc1ccc(-n2ncc3c(=O)n(CC(=O)NCc4ccco4)cnc32)cc1	21%	-2	2	10%
30	Cc1ccc(S(=O)(=O)CCCS(=O)(=O)c2ccc(C)cc2)cc1	8%	1	2	4%

No.	ClpP mod	gsp ag	Menin-MLL FL inh
16	0.8%	4%	1.9
17	-0.3%	-28%	0.6
18	-23%	-14%	-0.9
19	-3.7%	10%[15.4 µM]	1.6
20	18µM*	5%[15.4 µM]	-0.6
21	-1.5%	18%	x
22	-18%	u	-6.3
23	-3.1%	25%	1.2
24	-0.6%	-21%	1.7
25	-5.5%	x	x
26	x	13%[15.4 µM]	-1.0
27	0.1%	-55%[inhibitor]	x
28	x	-7%[15.4 µM]	-2.3
29	-21%	6%	-0.5
30	0.1%	13%	7.6

No.	SMILES	gsp antagonist	TRPV1 potentiator	CtBP-E1A blk	Sfp inh
31	Cn1c(C(=O)NCc2ccco2)cc2c(=O)[nH]c3ccccc3c21	19%	17	-20	7%
32	Nc1nonc1-n1nnc(C(=O)N/N=C/c2ccccc2F)c1-c1cccs1	-30%	-7	x	11%
33	Cc1c(NC(=O)c2ccc(Cl)nc2)cccc1-c1nc2cccnc2s1	-37%	-25	2	13%
34	Cc1ccc(Cn2c(Sc3nnc(C)s3)nc3c2c(=O)[nH]c(=O)n3C)cc1	-1%	13	-4	-6%
35	Cc1ccc(/C=N/NC(=O)CCSc2ccccc2)cc1	-11%	4	x	-4%
36	O=C(O)c1ccc(N/N=C/c2ccnc3ccccc23)cc1	-21%	2	u	-13%
37	CC(C)n1cc(C(=O)N2CCCC(Nc3ccc(F)c(F)c3)C2)cn1 (configuration not stated)	-2%	-27	x	8%
38	CCOc1ccc(N(CC(=O)NCc2ccc(OC)cc2)S(=O)(=O)c2c(C)[nH]c(=O)[nH]c2=O)cc1	u	14	-16	8%
39	O=c1cc2n(c(=O)[nH]1)CCC1=C2CCCC1	1%	7	0	11%
40	CCOC(=O)C1=C(C)NC(C)=C(C(=O)OCC)C1C1=COCCO1	8%	-4	7	-4%
41	CC(C)c1ccccc1NC(=O)Nc1ccc(F)cc1F	-14%	-6	-11	5%
42	Cn1nc(C(=O)Nc2nc3ccc(S(C)(=O)=O)cc3s2)ccc1=O	2%	-16	-3	1%
43	N#CC1(NC(=O)CSc2nnc(COc3ccccc3F)n2N)CCCCC1	10%	-1	-10	x
44	CSc1ccc(C(=O)C2CCCN(Cc3cccn3-c3cccnc3)C2)cc1 (configuration not stated)	-15%	-1	-29	6%
45	O=C(CN(c1cccc(C(F)(F)F)c1)S(=O)(=O)c1ccc(Cl)c([N+](=O)[O-])c1)NCc1ccccc1Cl	-29%	-3	-5	31%[activator]

No.	ClpP mod	gsp ag	Menin-MLL FL inh
31	28µM*	u	-0.9
32	-0.5%	u	-2.9
33	-9.6%	-18%	3.1
34	0.5%	-8%	1.9
35	1.2%	7%	-0.9
36	-0.5%	1%	u
37	-0.8%	u	-2.8
38	-2.7%&2.1%	-52%[inhibitor]	x
39	-6.5%	12%	-16
40	-2.2%	-10%	-1.9
41	0.0%	u	2.7
42	0.3%	u	2.0
43	x	-13%[15.4 µM]	x
44	x	-1%	0.2
45	-2.6%	-3%[15.4 µM]	-1.6

No.	SMILES	gsp antagonist	TRPV1 potentiator	CtBP-E1A blk	Sfp inh
46	CC1=C(C(=O)Nc2cc(C(=O)N(C)Cc3ccccc3)ccc2C)SCCO1	-2%	u	-5	8%
47	O=C(O)C1CN(C(=O)c2cccc(Br)c2)C1	17%	4	10	21%
48	O=C(CCc1ccccc1)Nc1ccc(F)cc1F	1%	-25	12	19%
49	COc1ccc(-c2nc(NC(=O)c3c(C)noc3C)sc2C)cc1	u	8	-1	x
50	CCOC(=O)C1=C(C)Nc2ccccc2N=C1NC(=O)CCCN1C(=O)c2ccccc2C1=O	6%	1	7	14%
51	O=C(c1ccccc1)c1ccc(N2CCN(C(=O)c3ccc(F)cc3F)CC2)c(F)c1	x	x	1	x
52	COc1ccc(NC(=O)COC(=O)c2cc(S(=O)(=O)N3CCCC3)ccc2O)cc1	-14%	x	4	x
53	Cc1sc2ncnc(N3CCN(Cc4ccccc4)CC3)c2c1-c1ccccc1	-38%	8	0	-20%
54	COc1ccc(-n2c(SCC(=O)Nc3sc4c(c3C#N)CCCC4)nnc2-c2ccc(O)cc2)cc1	2%	-9	-3	-26%
55	CCOc1ccc(OCC)c(NS(=O)(=O)c2cn(C)cn2)c1	10%	5	-10	15%
56	Cc1nnc(SCC(=O)Nc2nc3c(s2)CC(C)CC3)s1 (configuration not stated)	-2%	-14	-5	3%

No.	ClpP mod	gsp ag	Menin-MLL FL inh
46	-1.2%	-37%[inhibitor]	x
47	x	-6%	-8.0
48	-0.7%	-5%	-0.9
49	u	1%	x
50	0.6%	-25%	1.3
51	-7.5%	-22%	x
52	x	-4%	x
53	-3.1%	23%[15.4 µM]	-3.7
54	-2.1%	-43%[inhibitor]	-0.8
55	-0.4%	1%	-1.0
56	1.6%	u	-2.0

Along the list, as entered above.
gsp ag for entries 53–56: 23%[15.4 µM], -43%[inhibitor], 1%, u
gsp antagonist for entries 53–56: -38%, 2%, 10%, -2%
Sfp inh for entries 53–56: -20%, -26%, 15%, 3%
